Bioassay records (PubChem)
VDR inhibitor = inhibitors of human vitamin D receptor | AID 504847 | 400,000 tested, 0.93% active | Potency, µM, inactives show max response, negative = inhibition, actives largely listed as inhibitors | VDR-SRC2-3 peptide fluorescence polarization, 2 h; active means well fitted inhibition curve with a large enough effect; inconclusive means small, poorly fitted or top-dose-only effect, or another doubt; inactive means no such curve, though single readings can be large or run the other way; further: series mostly up to about 120 µM
Target sequence (P11473 whole entry, looked up): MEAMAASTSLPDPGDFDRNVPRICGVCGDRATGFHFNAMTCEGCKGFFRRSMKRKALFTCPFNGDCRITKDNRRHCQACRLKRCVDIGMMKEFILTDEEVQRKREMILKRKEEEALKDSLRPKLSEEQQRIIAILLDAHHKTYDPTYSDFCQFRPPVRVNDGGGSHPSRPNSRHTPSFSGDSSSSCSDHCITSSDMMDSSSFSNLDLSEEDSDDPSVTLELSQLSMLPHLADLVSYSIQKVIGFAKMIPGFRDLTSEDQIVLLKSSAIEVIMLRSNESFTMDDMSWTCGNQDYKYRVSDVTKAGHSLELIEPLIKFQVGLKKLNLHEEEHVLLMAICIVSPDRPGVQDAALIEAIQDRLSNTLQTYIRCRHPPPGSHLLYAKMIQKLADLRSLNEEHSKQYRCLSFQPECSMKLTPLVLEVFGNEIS
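Fluorescence polarization assay of small-molecule disruption of VDR binding to coregulator peptide SRC2-3. Compounds and controls pin-transferred, then read after 2 h incubation at ambient room temperature.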
The depositor's hits bear a star; ? = inconclusive; & = joins results of further samples. On the % scale 0 is the no-effect control and ±100 the full control effect; potency means the concentration at half of the fitted maximal effect. Some of the compounds tested. The share of hits here may be higher or lower than overall.

SMILES | VDR inhibitor
O=[N+]([O-])c1cccc(-c2csc(CS(=O)(=O)Cc3ccco3)n2)c1 | -6%
CCCOc1ccc(Cc2c(O)nc(SC)[nH]c2=O)cc1C | -22%
OCC[n+]1ccc(/C=C/c2c[nH]c3ccccc23)cc1 | -24%
O=C(COC(=O)c1ccc(F)cc1F)Nc1cccnc1Cl | -8%
Cc1cnc(CNc2ncnc3ccc(-c4ccc(C(=O)N(C)C)cc4)cc23)cn1 | -12%
O=C(NC1CCCCC1)C(c1ccc2ncccc2c1)N(Cc1ccc2c(c1)OCO2)C(=O)c1cccs1 (stereo unspecified) | -1%
Cc1cc(NC(=O)CCS(=O)(=O)c2ccc(F)cc2)no1 | -1%
CCCN(CCC)CCCNC(=S)Nc1ccc2nc(N3CCCC3)cc(C)c2c1 | -1%
S=C(NCc1cccnc1)Nc1ccc(Oc2ccc(Cl)cc2)cc1 | -16%
O=C(CSc1ncc(-c2ccccc2)[nH]1)Nc1ccccc1F | 3%
CN(C)CC/C=C1\c2ccccc2Sc2cc(F)c(Cl)cc21 | -9%
COC(=O)c1ccccc1NS(=O)(=O)c1ccc(F)cc1 | 1%

SMILES | VDR inhibitor
CCOc1ccc(-c2nonc2NC(=O)c2oc3ccc(CC)cc3c2C)cc1 | 6%
COc1ccc(-c2nnc3sc(-c4cccs4)nn23)cc1OC | -5%
Cc1cc(C)cc(-n2c(C)cc(/C=C3\C(=N)N4N=C(CC(C)C)SC4=NC3=O)c2C)c1 | 3%
O=C(CCCCCN1C(=O)CCC1=O)Nc1ccc2c(c1)OCCO2 | -6%
COc1ccc(-c2noc(=O)n2CC(=O)N2CCC(Cc3ccccc3)CC2)cc1 | -2%
COc1ccc(Br)cc1CNC(=O)CCc1nc(-c2ccccc2F)no1 | 6%
COc1ccc(/C=N/NC(=O)NC23CC4CC(CC(C4)C2)C3)c(OC)c1 | 4%
CCCn1cc(S(=O)(=O)c2ccccc2)c(=O)c2cc(OC)c(OC)cc21 | -3%
COCc1cc(=O)n2[nH]c(-c3ccsc3-n3c(C)ccc3C)cc2n1 | 0%
Cc1cc(NC(=O)Cn2c(=O)n(Cc3ccccc3)c(=O)c3ccccc32)no1 | -1%
CN(C)CCP(=O)(c1ccccc1)c1ccccc1 | 7%
COc1cc(C)c(Cl)cc1S(=O)(=O)n1ccnc1C | -13%

SMILES | VDR inhibitor
Cc1ccc(OCCCOc2cccc3cccnc23)cc1C | 15%
CC(C)c1ccc(C2c3c(oc4ccc(Cl)cc4c3=O)C(=O)N2CCCN2CCOCC2)cc1 (stereo unspecified) | 3%
CCc1ccc(NC(=O)CCc2c(C)nn(-c3ccc(N4CCCC4)nn3)c2C)cc1 | -7%
COc1ccc(NC(=O)CSc2nnc(-c3cccnc3)o2)c(OC)c1 | ?
COc1cc(C(=O)NC2CC(C)(C)NC(C)(C)C2)cc(OC)c1OC | -2%
Cc1ccc(-c2csc(NC(=O)c3c(C)noc3C)n2)cc1 | -1%
CCOC(=O)c1c(C)[nH]c(C2=NNC(=Nc3ccc(OCC)cc3)SC2)c1C | ?
Cc1ccc([C@@H]2CC=C(C(=O)O)[C@H](c3cccc(Cl)c3)N2S(=O)(=O)c2ccc(C)cc2)cc1 | -6%
COc1cccc(CNC(=O)c2ccc(-n3c(C)cc4c3CCC(C)C4)cc2)c1 (stereo unspecified) | 0%
O=C(/C(=C(\[O-])c1ccccc1)[n+]1ccc2ccccc2c1)c1ccc([N+](=O)[O-])cc1 | 2%
CCOC(=O)C1CCCN(C(=O)C2CCN(S(=O)(=O)c3cnc[nH]3)CC2)C1 (stereo unspecified) | -9%
CCCCC(=O)NC(=S)Nc1cccc(C(=O)O)c1 | -3%

SMILES | VDR inhibitor
CCCCCC(=O)N/N=C/c1ccc(N(C)C)cc1 | -25%
O=C(O)CC/C(=C\c1ccc(Cl)c([N+](=O)[O-])c1)c1nc2ccccc2s1 | -28%
CCOC(=O)c1c(CSC(=N)N)n(C)c2cc(Br)c(OC(C)=O)cc12 | 3%
CC(=O)N1c2ccc(S(=O)(=O)N(C)CC(=O)NC(C)c3ccccc3)cc2CC1C (stereo unspecified) | -12%
COc1ccc2[nH]c3c(N4CCC(O)(c5cccc(C(F)(F)F)c5)CC4)ncnc3c2c1 | -5%
CN1CCN(Cc2nc3ccccc3c(=O)n2Cc2nc(-c3ccccc3F)cs2)CC1 | -20%
CCOc1ccc(N(CC)S(=O)(=O)N2CCCC(C(=O)Nc3cc(Cl)ccc3OC)C2)cc1 (stereo unspecified) | 12%
CCOC(=O)c1c(NC(=S)Nc2ccc(OC)cc2)sc2c1CCCCC2 | -17%
CCOCCc1nn2c(=O)cc(COC(=O)c3ccccc3NC(=O)c3cccs3)nc2s1 | -2%
CCC(C)NC(=O)CSc1nc2cc3c(cc2c(=O)n1Cc1ccco1)OCO3 (stereo unspecified) | 14%
S=C1NCCOCCOCCOCCOCCN1 | 3%
CCOc1ccc(NC(=O)c2c(Nc3ccccc3C)sc(C(=O)c3ccc(Cl)cc3)c2N)cc1 | 7%

smiles | VDR inhibitor
CCC(=O)Nc1cccc(C2=NOC3(C2)C[C@H](C(N)=O)N(C(=O)Cc2ccc([N+](=O)[O-])cc2)C3)c1 (stereo partly specified) | -10%
CCC(C)NC(=O)Nc1ccc(C)cc1C (stereo unspecified) | 1%
O=C1NN(c2ccccc2)C(=O)C2C1C1C=CC2C12CC2 (stereo unspecified) | 0%
COc1ccc(NC(=O)CC(C)(C)C)c([N+](=O)[O-])c1 | -9%
CCOCCCN1CC(C(=O)NCCc2ccccc2)CC1=O (stereo unspecified) | 4%
CNC(=O)CSc1nc2nc(C)cc(C)n2n1 | 3%
Cc1ccc(C(=O)Nc2ccccc2-c2ccccc2)cc1S(=O)(=O)Nc1ccccc1 | 5%
Cc1ccc(OCC(=O)OCc2nc3scc(-c4ccccc4)c3c(=O)[nH]2)cc1C | -3%

Arranged by value in VDR inhibitor (descending): some entries from above.
smiles | VDR inhibitor
CCOCCCN1CC(C(=O)NCCc2ccccc2)CC1=O (stereo unspecified) | 4%
CNC(=O)CSc1nc2nc(C)cc(C)n2n1 | 3%
O=C1NN(c2ccccc2)C(=O)C2C1C1C=CC2C12CC2 (stereo unspecified) | 0%

(more compounds)
smiles | VDR inhibitor
CC(C)C(=O)N1CCC2(CC1)Oc1ccc(Cl)cc1C(=O)C21CC(c2cccnc2)=NO1 (stereo unspecified) | 2%
O=C(O)CSc1nnc(-c2ccncc2)n1C1CCCCC1 | -5%
CCOC(=O)C1CCN(Cc2cn[nH]c2-c2ccccc2)CC1 | -9%
CCOC(=O)C1=C(C)C(c2ccc(OC)cc2)NC(=O)N1 (stereo unspecified) | -4%
C=CCn1cnc2c(nnn2-c2ccc(OC)c(OC)c2)c1=O | 1%
COC(=O)c1csc(C(=O)c2c[nH]c3ccccc23)n1 | 0%&1%
COc1ccccc1C(=O)NC(=O)COC(=O)C1CCC1 | -17%
CCc1ccc(N2CCN(CCNC(=O)Nc3ccc(OC)cc3)CC2)cc1 | -16%

smiles | VDR inhibitor
O=C(c1ccc(S(=O)(=O)Nc2ccccc2F)cc1)N1CCN(c2ccccn2)CC1 | -19%
Cc1c(C(=O)N2CCCC(C)C2)sc2ncnc(N3CCCCC3C)c12 (stereo unspecified) | -14%
CC1CCCN(CC(=O)Nc2cccc([N+](=O)[O-])c2)C1 (stereo unspecified) | -14%
C(=C\c1ccccc1)/CSc1nnc(-c2cccnc2)o1 | 0%
Cc1nn(C)c(C(=O)N/N=C/c2cccc3ccccc23)c1Cl | -17%
O=C(CSc1ccc2c(c1)OCCO2)Nc1cccnc1 | 15%
Cc1cccc(-n2ncc3c(NCc4cccnc4)ncnc32)c1 | -15%
CCc1nnc(NC(=O)CN2C(=O)c3ccccc3S2(=O)=O)s1 | -22%

smiles | VDR inhibitor
COc1ccc(Cc2nc3ccc(C(=O)NC(C)c4cnn(C)c4)cc3o2)cc1 (stereo unspecified) | 1%
O=C1CC(Sc2nnc(-c3ccccc3)o2)C(=O)N1c1ccccc1 (stereo unspecified) | -5%
COc1cccc(CC(=O)OCC(=O)c2cc(OC)c(OC)c(OC)c2)c1 | -17%
COc1ccc(S(=O)(=O)Cc2ccc(C(=O)NCC(OC)OC)o2)cc1 | 11%
Cc1ccc(S(=O)(=O)N2CCN(CC(=O)NCC3(N4CCOCC4)CCCCC3)CC2)cc1 | -7%
O=C(N/N=C/c1cccnc1)c1cccc(NC(=O)c2cccc(Br)c2)c1 | 1%
CC(C)NC(=O)c1ccc(NC(=O)CC2SC(N3CCCC3)=NC2=O)cc1 (stereo unspecified) | 4%
O=C(Nc1ccc(C(=O)N2CCCCC2)cc1)c1nsc2ccccc12 | 8%

smiles | VDR inhibitor
CCOc1cnc(C(=O)NNC(=O)c2ccccc2Br)o1 | 1%
Cc1ccccc1NC(=O)c1ccc(OCC(=O)Nc2ccccc2F)cc1 | 0%
Cc1cc(OCCn2c(C3CC(=O)N(Cc4ccc(F)cc4)C3)nc3ccccc32)ccc1Cl (stereo unspecified) | 21%
Cc1cc(=O)oc2cc(NC(=S)NCc3cccnc3)ccc12 | 30%
COc1ccccc1NS(=O)(=O)c1cc(C(=O)NCC(c2ccco2)N2CCCCC2)ccc1C (stereo unspecified) | -8%
O=C(CSc1nccc(=O)[nH]1)Nc1ccccc1Sc1ccccc1 | 5%
O=C(Nc1cc(Br)c(O)c(Br)c1)c1cccc(NC(=O)c2ccco2)c1 | 0%
CC12CC3(C)CC(C)(C1)CC(C(=O)NC(=S)N1CCCC1)(C2)C3 | -6%

smiles | VDR inhibitor
Cc1ccc(S(=O)(=O)N2CCN(C(=O)CCC(=O)NCCc3ccc(S(N)(=O)=O)cc3)CC2)c(C)c1 | 3%
COc1ccc(/C=N/Nc2nc3ccccc3s2)cc1O | -14%
C=CCSc1nc2sc3c(c2c(=O)[nH]1)CCC3 | -1%
CN(C)C(=O)CCSc1nnc(-c2ccncc2)o1 | -2%
CCCn1c(C)cc(C(=O)COC(=O)c2ccc(Cl)c(S(=O)(=O)N3CCCC3)c2)c1C | 7%
CCOC(=O)C#CC(CCc1ccccc1)OS(N)(=O)=O (stereo unspecified) | ?
Clc1ccc(-c2cn3cccnc3n2)cc1 | 23%
C=CCn1cccc(/C=C/C(=O)c2ccc(C(C)(C)C)cc2)c1=S | ?

smiles | VDR inhibitor
CCOc1ccc(OCCC(=O)Nc2cccc(S(=O)(=O)N3CCCC3)c2)cc1 | 5%
CCn1c(CC(=O)Nc2ccc(C)c(Cl)c2)nnc1SCc1ccc(Cl)c(Cl)c1 | 6%
Cc1cc(C2(c3ccc(O)c(C)c3)C(=O)N(C)c3ccc(Br)cc32)ccc1O | -7%
CCOC(=O)c1c(C)[nH]c(C)c1S(=O)(=O)N1CCCC(C(=O)NCc2ccc(N(C)C)cc2)C1 (stereo unspecified) | 0%
O=C(CCC1CCCC1)N1CCC(N2CCN(c3ccccc3)CC2)CC1 | -2%
O=C(Cc1ncc(C(F)(F)F)cc1Cl)N1CCN(c2cccc(Cl)c2)CC1 | -6%
COc1cccc(C(=O)NC2CC3CCCC(C2)N3CC(=O)Nc2ccccc2C(F)(F)F)c1 (stereo unspecified) | -8%
COC(=O)c1cn(C)c2ccc(S(=O)(=O)N3CCCCC3)cc2c1=O | -2%

No new results follow: entries from further up.
smiles | VDR inhibitor
C=CCn1cccc(/C=C/C(=O)c2ccc(C(C)(C)C)cc2)c1=S | ?
CCOc1ccc(OCCC(=O)Nc2cccc(S(=O)(=O)N3CCCC3)c2)cc1 | 5%
CCn1c(CC(=O)Nc2ccc(C)c(Cl)c2)nnc1SCc1ccc(Cl)c(Cl)c1 | 6%
Cc1cc(C2(c3ccc(O)c(C)c3)C(=O)N(C)c3ccc(Br)cc32)ccc1O | -7%
CCOC(=O)c1c(C)[nH]c(C)c1S(=O)(=O)N1CCCC(C(=O)NCc2ccc(N(C)C)cc2)C1 (stereo unspecified) | 0%
O=C(CCC1CCCC1)N1CCC(N2CCN(c3ccccc3)CC2)CC1 | -2%
O=C(Cc1ncc(C(F)(F)F)cc1Cl)N1CCN(c2cccc(Cl)c2)CC1 | -6%

The list goes on.
smiles | VDR inhibitor
O=C(COC(=O)c1cc(S(=O)(=O)N2CCOCC2)cs1)c1ccccc1 | -11%
O=C(CSc1nnc(-c2ccc(NS(=O)(=O)c3ccccc3)cc2)o1)NCC1CCCO1 (stereo unspecified) | -6%
COc1ccc(-n2c(SCC(=O)Nc3ccc(Cl)cc3)nc(O)c(Cc3ccccc3)c2=O)cc1 | -9%
COc1ccc(-c2csc(NC(=O)CN3C(=O)C4CC=CCC4C3=O)n2)cc1OC (stereo unspecified) | -15%
O=C(O)COc1ccccc1/C=N/NC(=O)CSc1nc2ccccc2c(=O)n1-c1ccccc1 | 1%
CCn1cc(Cl)c(C(=O)Nc2cc(C(=O)OC)cc(C(=O)OC)c2)n1 | -8%
C#CCOCCOCCOCCNc1nc(N2CCN(C(=O)[C@H](CCCCN)n3cc(CCC(=O)O)nn3)CC2)nc(N2CCN(C(=O)[C@H](CCCCN)n3cc(CC(C)O)nn3)CC2)n1 (stereo partly specified) | -24%
Cc1ccccc1OCC1CN(CN2CCOCC2)C(=O)O1 (stereo unspecified) | -11%

smiles | VDR inhibitor
O=C(Nc1nc2ccccc2s1)c1cc(-c2ccccc2)nn1-c1ccccc1 | 11%
Cc1ccsc1/C=N/NC(=O)c1cc(-c2ccncc2)nc2ccccc12 | -17%
CCN(CC)CCNC(=O)c1ccc(NC(=O)c2cc(-c3ccco3)nc3ccccc23)cc1 | 7%
CN(C)C(=O)CN1C(=O)NC2(CCc3ccccc32)C1=O (stereo unspecified) | -5%
CC(C)N1C2OC(C3OC4C(O3)N(C(C)C)S(=O)(=O)N4C(C)C)OC2N(C(C)C)S1(=O)=O (stereo unspecified) | -3%
CC(=O)N1CCc2cc(CNC(=O)Nc3cc(Cl)ccc3C)ccc21 | 9%
Cc1nn(-c2ccccc2)c(C)c1NC(=O)COC(=O)c1cc([N+](=O)[O-])ccc1NCCO | -11%
CCCOC(=O)CSC1=C(C#N)C(c2ccccc2Cl)CC(=O)N1 (stereo unspecified) | 12%
COCC(C)n1c(C)cc(C(=O)CSc2nnc(N)s2)c1C (stereo unspecified) | -18%
CCCCc1nc(S(=O)(=O)c2ccc(Cl)cc2)c(N2CCOCC2)o1 | -6%
